Env fusion inh – inhibitors of HIV-1 Env-driven cell-cell fusion, primary screen, HeLa-JRFL effector, CEM21 target cells, luciferase. AID 651610, 2012. 1.1% of 360,000 active. inhibition, % at 12.3 µM;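 active means mean replicate inhibition score of at least 50 and every replicate individually at or above 50; inconclusive means only one of the two criteria met; inactive means mean below 50 and not all replicates reaching 50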;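 further: 0% = plate neutral controls and 100% = maraviroc near 300 nM; one replicate is shown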
* = called active by the depositor; ? = inconclusive; [ ] = dose if it differs, or a comment. These rows are one share of the data; rates above refer to the full screens.

Env fusion inh	SMILES
22.2	C[C@H]1[C@H](c2ccccc2)Oc2cccc(NCCc3ccccc3)c2S(=O)(=O)N1Cc1cccc(Cl)c1
-48.7[16.7 µM]	COc1ccccc1CN1C[C@@H](C)[C@H](OC)CN(C)C(=O)c2cc(NC(C)=O)ccc2OC[C@@H]1C
-55.1[16.7 µM]	COc1cccc(S(=O)(=O)Nc2ccc3c(c2)[C@H]2C[C@@H](CC(=O)NCCc4ccccc4)O[C@@H](CO)[C@H]2O3)c1
75.0*	Nc1nc2c(ncn2[C@@H]2O[C@H](C(=O)NCC(c3ccccc3)c3ccccc3)[C@@H](O)[C@H]2O)c(=O)[nH]1
15.2[16.7 µM]	CCC(=O)Nc1ccc2c(c1)C(=O)N(C)C[C@H](OC)[C@@H](C)CN(Cc1ccncc1)[C@H](C)CO2
-12.0[16.7 µM]	CN(C)C(=O)C[C@H]1CC[C@@H](NC(=O)C2CCOCC2)[C@@H](CO)O1
1.6[16.7 µM]	CCCNC(=O)Nc1ccc2c(c1)C(=O)N(C)C[C@@H](OC)[C@@H](C)CN(Cc1ccc(-c3ccccn3)cc1)[C@@H](C)CO2
0.7[16.7 µM]	CO[C@H]1CC[C@H]2CCOc3c(C#N)cccc3C(=O)N(C)CCCC(=O)N(C)C[C@@H]1O2
1.9[16.7 µM]	O=C(C[C@H]1CC[C@H]2[C@@H](COC[C@H](O)CN2C(=O)c2ccccc2)O1)NCCCN1CCOCC1
1.7[16.7 µM]	C[C@H](CO)N1C[C@H](C)[C@@H](CN(C)C(=O)Nc2ccc(F)cc2)Oc2ccc(NC(=O)CCCCCC(=O)Nc3ccccc3N)cc2CC1=O
-18.3[16.7 µM]	C[C@H](NC(=O)C[C@@H]1C[C@H]2c3cc(NC(=O)c4cccnc4)ccc3O[C@H]2[C@@H](CO)O1)c1ccccc1
2.7[16.7 µM]	O=C(C[C@H]1C[C@H]2c3cc(NC(=O)C4CCC4)ccc3O[C@H]2[C@H](CO)O1)NCc1cccc(F)c1
6.0[16.7 µM]	O=C(C[C@H]1C[C@@H]2c3cc(NS(=O)(=O)c4ccc(F)cc4)ccc3O[C@@H]2[C@@H](CO)O1)NCc1cccnc1
7.5[16.7 µM]	COc1ccc(S(=O)(=O)Nc2cccc3c2O[C@H](CN(C)Cc2ccc(C(=O)O)cc2)[C@H](C)CN([C@@H](C)CO)C3=O)cc1
4.6	CN1CCCCC(NC(=O)c2ccc(F)cc2)C1=O (stereo unspecified)
5.7[16.7 µM]	CC(C)NC(=O)Nc1ccc2c(c1)C(=O)N([C@H](C)CO)C[C@@H](C)[C@H](CN(C)CC1CC1)OCCCC[C@@H](C)O2
6.2[16.7 µM]	CO[C@@H]1CN(C)C(=O)c2cc(NC(C)=O)ccc2OC[C@H](C)N(C(=O)c2ccc(F)cc2)C[C@@H]1C
3.6[16.7 µM]	CO[C@@H](C(=O)N(C)C[C@@H]1OCc2ccccc2-c2c(n(C)c3ccccc23)C(=O)N([C@H](C)CO)C[C@@H]1C)c1ccccc1
-5.9[16.7 µM]	CS(=O)(=O)N1C[C@@H](O)COC[C@@H]2O[C@H](CC(=O)NCc3ccccc3)CC[C@H]21
-5.9[16.7 µM]	CNC[C@@H]1OCCCC[C@H](C)Oc2ccc(NS(=O)(=O)c3ccc(F)cc3)cc2C(=O)N([C@@H](C)CO)C[C@H]1C

Next section:
Env fusion inh	SMILES
-2.7[16.7 µM]	C[C@@H]1CN([C@H](C)CO)C(=O)CCCn2cc(nn2)CO[C@@H]1CN(C)C(=O)NC1CCCC1
?	COc1cccc(OCCCN2CCC(C(O)(c3ccccc3)c3ccccc3)CC2)c1
-14.4[16.7 µM]	CCCN1C[C@H](C)[C@@H](OC)CN(C)C(=O)c2cc(NC(=O)C3CCC3)ccc2OC[C@H]1C
57.2*[16.7 µM]	CN1C(=O)c2cc(NC(=O)c3cscn3)ccc2OC[C@@H]2O[C@@H](CC(=O)NCc3ccc(Cl)c(Cl)c3)CC[C@H]21
-24.5[16.7 µM]	C[C@@H]1CCCCO[C@H](CN(C)C(=O)c2ccccc2)[C@H](C)CN([C@@H](C)CO)C(=O)c2cc(NC(=O)c3ccccc3)ccc2O1
-21.8	COc1cccc(CNC(=O)[C@H]2CCCN2C(=O)[C@H]2CCCN2C(=O)N2CCOCC2)c1
-1.6	COC(=O)[C@]1(Cc2ccccc2)NC=C(C(=O)c2ccc(F)cc2)[C@@H]1c1ccccc1
8.0[16.7 µM]	CCCNC(=O)N1C[C@H](O)COC[C@@H]2O[C@H](CC(=O)N3CCN(C)CC3)CC[C@H]21
?	CN1C(=O)[C@@]2(O[C@H]3C=CC=CN3C3=C2C(=O)CCC3)c2cccc(Br)c21
-1.9[16.7 µM]	O=C(Cc1ccncc1)Nc1ccc2c(c1)[C@H]1C[C@@H](CC(=O)N3CCc4ccccc4C3)O[C@H](CO)[C@H]1O2
-29.9	COc1ccccc1Cc1c(-c2ccc(C)cc2)nc2ccc(C)cn12
33.3[16.7 µM]	O=C(C[C@H]1CC[C@H]2[C@@H](COC[C@@H](O)CN2C(=O)c2cc(Cl)cc(Cl)c2)O1)N1CCc2ccccc2C1
-34.6[16.7 µM]	COC(=O)C[C@H]1C[C@@H]2c3cc(N)ccc3O[C@@H]2[C@H](CO)O1
8.7[16.7 µM]	C[C@@H]1CN([C@@H](C)CO)C(=O)Cc2cc(NC(=O)CCCCCC(=O)Nc3ccccc3N)ccc2O[C@H]1CN(C)S(=O)(=O)c1ccc(Cl)cc1
6.7[16.7 µM]	C[C@H](CO)N1C[C@H](C)[C@H](CN(C)S(=O)(=O)c2cccc(F)c2)OCc2cn(nn2)CCCC1=O
15.5[16.7 µM]	COc1ccccc1S(=O)(=O)N[C@H]1CC[C@H](CCn2cc(C3CCCCC3)nn2)O[C@H]1CO
31.6[16.7 µM]	Cc1noc(C)c1S(=O)(=O)N(C)C[C@@H]1OCc2ccccc2-c2c(n(C)c3ccccc23)C(=O)N([C@@H](C)CO)C[C@@H]1C
-1.0[16.7 µM]	COCC(=O)Nc1ccc2c(c1)C(=O)N(C)C[C@H](OC)[C@@H](C)CN(C(=O)Cc1cccnc1)[C@H](C)CO2
7.6[16.7 µM]	CO[C@H]1CC[C@H]2CCN(C)C(=O)[C@H](C)N(C)C(=O)c3cc(C#N)ccc3OC[C@@H]1O2
5.2	Cc1ccc2c(c1)-n1c(nc3ccccc3c1=O)C(Cc1ccc(O)cc1)NC2=O (stereo unspecified)

(next part)
Env fusion inh	SMILES
-26.7[16.7 µM]	C[C@@H]1CN([C@@H](C)CO)C(=O)CCCn2nncc2CO[C@@H]1CN(C)Cc1ccc2c(c1)OCCO2
-3.9[16.7 µM]	Cc1cccc(S(=O)(=O)N2C[C@@H](O)COC[C@H]3O[C@@H](CC(=O)Nc4ccc(-c5ccccc5)cc4)CC[C@@H]32)c1
0.2	C[C@H](O)[C@@H]1C(=O)N2CCc3c([nH]c4c(-c5ccccc5)cccc34)[C@@H]2C[C@@H]1N(C)C(=O)NC1CCCCC1
-2.4[16.7 µM]	CCC(=O)Nc1ccc2c(c1)C(=O)N(C)C[C@@H](OC)[C@H](C)CN(CC1CCOCC1)[C@@H](C)CO2
-6.7[16.7 µM]	CC(C)NC(=O)Nc1ccc2c(c1)C(=O)N([C@H](C)CO)C[C@@H](C)[C@@H](CN(C)C)OCCCC[C@@H](C)O2
14.1[16.7 µM]	C[C@H](CO)N1C[C@H](C)[C@H](CN(C)C(=O)c2ccncc2)Oc2ncc(-c3ccc(F)cc3)cc2C1=O
-1.0[16.7 µM]	C[C@H]1CN([C@@H](C)CO)C(=O)c2c(c3ccccc3n2C)-c2ccccc2CO[C@@H]1CN(C)Cc1cccc(C(=O)O)c1
-9.9[16.7 µM]	CO[C@H]1CN(C)C(=O)c2ccc(NC(=O)C3CCCCC3)cc2OC[C@H](C)N(Cc2cccnc2)C[C@H]1C
-20.1	CCCCOCCCNC(=O)C[C@H]1C[C@@]2(C(=O)OC)C(=C[C@H](C(C)C)O[C@@H]2C2CC2)N(Cc2ccccc2)C1=O
1.0	COc1ccccc1C(=O)N1CCC2CCNC2C1 (stereo unspecified)
25.3[16.7 µM]	C/C=C/c1ccc([C@@H]2[C@@H](CO)N(C(=O)CN(C)C)C23CN(C(=O)C2CCCC2)C3)cc1
-8.9[16.7 µM]	COc1ccccc1C(=O)Nc1ccc2c(c1)C(=O)N(C)C[C@H](OC)[C@@H](C)CN(C)[C@@H](C)CO2
6.6[16.7 µM]	CN1CCN(C(=O)C[C@@H]2CC[C@H]3[C@H](COc4ccc(NC(=O)c5cscn5)cc4C(=O)N3C)O2)CC1
-1.0[16.7 µM]	O=C(C[C@@H]1CC[C@H]2[C@@H](COC[C@H](O)CN2C(=O)Nc2ccc(F)cc2)O1)NCCCN1CCOCC1
-178.5[16.7 µM]	CC(C)(C)[S@](=O)N1Cc2cc(C(=O)NC3CCCCC3)nc(-c3cccc(Br)c3)c2[C@@H]1CCO
-17.3[16.7 µM]	C[C@@H]1CN([C@@H](C)CO)C(=O)CCCn2nncc2CO[C@@H]1CN(C)C
-8.0	COC(=O)c1cc2c(c3c4ccccc4n(S(=O)(=O)c4ccccc4)c13)C(=O)N(Cc1ccco1)C2
-12.8[16.7 µM]	CC(C)NC(=O)N(C)C[C@H]1OCCCC[C@H](C)Oc2ccc(NC(=O)Nc3ccccc3)cc2C(=O)N([C@@H](C)CO)C[C@H]1C
-4.7[16.7 µM]	Cc1noc(C)c1NC(=O)N(C)C[C@@H]1OCc2ccccc2-c2ccccc2C(=O)N([C@H](C)CO)C[C@@H]1C
-10.2[16.7 µM]	COC(=O)c1cn(CCNC(=O)[C@H](Cc2ccccc2)NS(=O)(=O)c2ccc(C)cc2)nn1

Overlap with the part before: 2 entries; new compounds follow.
Env fusion inh	SMILES
-4.7[16.7 µM]	Cc1noc(C)c1NC(=O)N(C)C[C@@H]1OCc2ccccc2-c2ccccc2C(=O)N([C@H](C)CO)C[C@@H]1C
-10.2[16.7 µM]	COC(=O)c1cn(CCNC(=O)[C@H](Cc2ccccc2)NS(=O)(=O)c2ccc(C)cc2)nn1
-19.9[16.7 µM]	CN(C)c1ccc2c(c1)[C@H]1C[C@H](CC(=O)NCc3cccc(F)c3)O[C@@H](CO)[C@H]1O2
4.3[16.7 µM]	O=C(C[C@@H]1CC[C@H](NC(=O)C2CCC2)[C@H](CO)O1)NCC1CC1
-31.0[16.7 µM]	CCCNC(=O)N1CCC2(CC1)CN(C(=O)CC)[C@@H](CO)c1[nH]c3cc(OC)ccc3c12
-10.8[16.7 µM]	O=C(Nc1nccs1)[C@H]1[C@H](CO)[C@H]2Cn3c(cccc3=O)[C@@H]1N2C(=O)C1CCCC1
4.4	COc1ccc(OC)c(CNS(=O)(=O)c2ccccc2Br)c1
8.7[16.7 µM]	C[C@@H]1CN([C@H](C)CO)C(=O)Cc2cc(NC(=O)Nc3cccc4ccccc34)ccc2O[C@@H]1CN(C)Cc1ccncc1
-5.6	COC(=O)[C@]12C[C@H](CC(=O)NCCCCc3ccccc3)C(=O)N(CCC3=CCCCC3)C1=C[C@H](COCc1ccccc1)O[C@@H]2C
-8.9[16.7 µM]	C[C@@H]1CN([C@H](C)CO)C(=O)c2cc(C#CC3(O)CCCC3)cnc2O[C@@H]1CN(C)C(=O)C1CC1
15.1[16.7 µM]	COc1ccc2c3c([nH]c2c1)[C@@H](CO)N(Cc1ccncc1)CC31CCN(C(=O)c2cccnc2)CC1
-6.1[16.7 µM]	O=C(C[C@@H]1CC[C@@H]2[C@H](COC[C@H](O)CN2S(=O)(=O)c2cccc(Cl)c2)O1)N1CCCCC1
-17.4	COC(=O)C1=C(C)N(Cc2ccccc2C(F)(F)F)C(=NCc2ccc3c(c2)OCO3)NC1c1ccc(F)cc1 (stereo unspecified)
8.1[16.7 µM]	O=C1N[C@H](c2ccccc2)COCc2cn(nn2)CC[C@H]1Cc1ccccc1
8.2[16.7 µM]	C[C@H](CO)N1C[C@H](C)[C@H](CN(C)S(=O)(=O)c2cn(C)cn2)Oc2ncc(-c3cc4ccccc4o3)cc2C1=O
7.4[16.7 µM]	COc1ccccc1S(=O)(=O)N[C@@H]1CC[C@@H](CCn2cc(C3CCCCC3)nn2)O[C@@H]1CO
13.6[16.7 µM]	COCC(=O)N1C[C@@H](C)[C@@H](OC)CN(C)C(=O)c2ccc(NC(=O)c3ccc(OC)cc3)cc2OC[C@H]1C
6.0[16.7 µM]	C[C@@H]1CCCCO[C@@H](CN(C)CC2CC2)[C@@H](C)CN([C@H](C)CO)C(=O)c2cc(NS(C)(=O)=O)ccc2O1
-2.8[16.7 µM]	C[C@@H]1CN([C@H](C)CO)C(=O)c2cccc(NC(=O)Nc3cccc4ccccc34)c2O[C@@H]1CN(C)Cc1ccc(C(=O)O)cc1
-142.9[16.7 µM]	CCCNC(=O)Nc1ccc2c(c1)C(=O)N(C)C[C@H](OC)[C@@H](C)CN(Cc1ccc(-c3ccccn3)cc1)[C@@H](C)CO2
5.7[16.7 µM]	COCC(=O)N(C)C[C@@H]1Oc2ncc(C#CC(C)(C)O)cc2C(=O)N([C@@H](C)CO)C[C@H]1C
16.0[16.7 µM]	CC(C)NC(=O)Nc1ccc2c(c1)C(=O)N([C@H](C)CO)C[C@@H](C)[C@@H](CN(C)C)OCCCC[C@H](C)O2
31.9[16.7 µM]	COc1ccc(CNC(=O)C[C@H]2C[C@@H]3c4cc(NC(=O)C5CCC5)ccc4O[C@@H]3[C@@H](CO)O2)cc1

In another format: entries from further up.
| smiles | Env fusion inh |
| --- | --- |
| COC(=O)C1=C(C)N(Cc2ccccc2C(F)(F)F)C(=NCc2ccc3c(c2)OCO3)NC1c1ccc(F)cc1 (stereo unspecified) | -17.4 |
| COc1ccc2c3c([nH]c2c1)[C@@H](CO)N(Cc1ccncc1)CC31CCN(C(=O)c2cccnc2)CC1 | 15.1[16.7 µM] |
| CCCNC(=O)Nc1ccc2c(c1)C(=O)N(C)C[C@H](OC)[C@@H](C)CN(Cc1ccc(-c3ccccn3)cc1)[C@@H](C)CO2 | -142.9[16.7 µM] |
| CCCNC(=O)N1CCC2(CC1)CN(C(=O)CC)[C@@H](CO)c1[nH]c3cc(OC)ccc3c12 | -31.0[16.7 µM] |
| C[C@@H]1CCCCO[C@@H](CN(C)CC2CC2)[C@@H](C)CN([C@H](C)CO)C(=O)c2cc(NS(C)(=O)=O)ccc2O1 | 6.0[16.7 µM] |
| O=C(C[C@@H]1CC[C@H](NC(=O)C2CCC2)[C@H](CO)O1)NCC1CC1 | 4.3[16.7 µM] |
